Source: PubChem (several laboratories)
YopH PTP inh: YopH (Yersinia) phosphatase inhibition. fluorescence Ex485/Em525. inhibition, %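 (about 10 µM by stock and volumes)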. hit rate 0.16% among 140,000. AID 898;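 active = inhibition of 50% or more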;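 note: controls were vehicle for no effect and minimum signal wells for full effect; inactives centre near -20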
Arbovirus anti: antivirals against arbovirus infection. arbovirus infection cell-based antiviral screen. inhibition, % at 10 µM. hit rate 0.37% among 200,000;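 active = inhibition from about 30%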;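 note: bluetongue infection of BSR cells; cell survival read as ATP light after 72 h; 0% = infected wells without compound and 100% = uninfected wells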
Mtb bLac sens: beta-lactam sensitization of Mtb H37Rv; M. tuberculosis H37Rv growth with meropenem, percent inhibition; hits of this screen are not shown here; inhibition, % at 25 µM; hit rate 0.27% among 330,000; AID 434955;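 active = about 74% or more and at least 40 points above the plate without the antibiotic, then above 30% in a dose series; inconclusive = first-round hits that could not be retested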;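 note: growth measured after seven days incubation then overnight dye step; 0% = bacteria only wells and 100% = bacteria with antibiotic; twin plates without the antibiotic show which effects depend on it; some results filed as inactive read as strong as hits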
RecA splice inh: Mtb RecA intein splicing inhibition; P9WHJ3; cell-free RecA intein splicing, fluorescence; inhibition, %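 (about 9 µM by stock and volumes)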; hit rate 0.75% among 290,000; AID 2221; in the data active = inhibition above about 30%; inconclusive = no clear call, values can overlap the other calls;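 note: 0% = vehicle wells and 100% = reference inhibitor control wells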
Target sequence (P9WHJ3 whole entry, looked up, canonical isoform): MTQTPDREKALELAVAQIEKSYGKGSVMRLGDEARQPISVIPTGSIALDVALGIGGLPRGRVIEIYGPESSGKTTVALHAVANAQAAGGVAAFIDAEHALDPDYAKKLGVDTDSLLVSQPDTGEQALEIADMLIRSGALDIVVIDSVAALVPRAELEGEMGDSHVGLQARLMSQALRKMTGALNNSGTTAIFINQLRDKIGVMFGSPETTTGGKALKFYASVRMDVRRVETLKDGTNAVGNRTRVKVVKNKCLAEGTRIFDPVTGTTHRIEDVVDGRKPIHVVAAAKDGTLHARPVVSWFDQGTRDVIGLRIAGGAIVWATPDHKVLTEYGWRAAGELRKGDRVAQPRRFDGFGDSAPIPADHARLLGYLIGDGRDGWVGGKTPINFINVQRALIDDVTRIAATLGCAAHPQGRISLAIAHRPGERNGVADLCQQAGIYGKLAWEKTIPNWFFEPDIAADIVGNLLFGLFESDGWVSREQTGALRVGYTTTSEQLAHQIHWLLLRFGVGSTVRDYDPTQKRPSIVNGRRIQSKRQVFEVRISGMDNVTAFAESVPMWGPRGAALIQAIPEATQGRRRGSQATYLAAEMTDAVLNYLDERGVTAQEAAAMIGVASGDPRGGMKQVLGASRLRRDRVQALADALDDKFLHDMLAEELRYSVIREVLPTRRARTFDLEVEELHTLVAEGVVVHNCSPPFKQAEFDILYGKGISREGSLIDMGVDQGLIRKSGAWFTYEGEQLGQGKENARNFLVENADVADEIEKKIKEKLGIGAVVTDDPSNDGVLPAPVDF
Mtb growth: M. tuberculosis H37Rv growth inhibitors, H37Rv strain (AID 1626) | M. tuberculosis H37Rv growth inhibition; higher % means a stronger effect | one-dose inhibition, % at 10 µM; IC50 in µM for titrated hits | hit rate 0.95% among 220,000;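 active = confirmed in a dose series; inconclusive = inhibition above 80% but not taken into the dose series; inactive = below 80% or under 30% at every dose of the series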;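 note: bacteria incubated seven days before Alamar blue readout; 0% = bacteria only wells and 100% = bacteria with antibiotic wells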
Arbovirus anti repeat: recorded beside Arbovirus anti, whose call it bears; inhibition, %; measured here: 10K subset replicate screen; many hits read low in the repeat;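 first of two repeat runs on a subset; 0% = infected and 100% = uninfected wells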
An asterisk follows results filed as active; ? = inconclusive; · = no result given. Some of the compounds tested; the hit share may differ from the screen's.

Sample of the layout:
SMILES	YopH PTP inh	Arbovirus anti	Mtb bLac sens	RecA splice inh	Mtb growth	others
COc1ccccc1C(C)NCC(=O)NCc1ccc(C)cc1 (stereo not given)	·	·	-3	1.9	·
O=C(OCc1nc(-c2ccccc2)oc1COC(=O)c1ccco1)c1ccco1	-30	7	7	2.1	1%
COc1ccc(/C(N)=N/OC(=O)C2CCCCC2)cc1	·	·	-1	3.1	·
COc1cccc(N2C(=O)Nc3ccc(Br)cc3C2(O)C(=O)NCCN(C)C)c1 (stereo not given)	·	·	-12	2.4	·
Clc1ccc(CNc2cnccn2)cc1Cl	·	·	6	-0.1	·

Main list (from the top)
SMILES	YopH PTP inh	Arbovirus anti	Mtb bLac sens	RecA splice inh	Mtb growth	others
COc1ccccc1C(C)NCC(=O)NCc1ccc(C)cc1 (stereo not given)	·	·	-3	1.9	·
O=C(OCc1nc(-c2ccccc2)oc1COC(=O)c1ccco1)c1ccco1	-30	7	7	2.1	1%
COc1ccc(/C(N)=N/OC(=O)C2CCCCC2)cc1	·	·	-1	3.1	·
COc1cccc(N2C(=O)Nc3ccc(Br)cc3C2(O)C(=O)NCCN(C)C)c1 (stereo not given)	·	·	-12	2.4	·
Clc1ccc(CNc2cnccn2)cc1Cl	·	·	6	-0.1	·
O=C(COc1ccccc1)Nc1nnc(-c2ccc(F)cc2)o1	·	·	?	-3.4	·
O=C(O)C1CCN(c2c([N+](=O)[O-])cc(C(F)(F)F)cc2[N+](=O)[O-])CC1	-27	7	-8	7.4	-8%
N=c1c2c(ncn1Cc1ccco1)Oc1cc(O)ccc1C2c1ccccc1 (stereo not given)	·	·	-4	0.2	-2%
CCc1cc2c(=O)c(-c3ccc(F)cc3)c(C(F)(F)F)oc2cc1OCC(=O)O	·	15	2	2.2	-6%
O=C1NCCN/C1=C\C(=O)c1ccc(Br)cc1	·	·	-4	5.6	-4%
O=c1c2ccccc2cnn1Cc1n[nH]c(=S)n1C1CC2CCC1C2 (stereo not given)	·	·	-14	0.5	-9%
CC1CCC2C(=O)N(c3ccc(NC4CCN(Cc5ccccc5)CC4)c([N+](=O)[O-])c3)C(=O)C2C1 (stereo not given)	·	-10	1	-0.5	·
Cc1cc(Oc2ccc(N)cn2)cc(C)c1Cl	·	·	5	-2.1	-2%
O=C1NC(=O)C(C/C=C/c2ccccc2)C(=O)N1	-13	5	27	3.2	4%
COc1ccccc1N(CC(=O)N1CCCCC1)S(=O)(=O)c1ccccc1	-26	9	-2	8.1	-4%
CCOc1ccc(C2c3c(oc4ccccc4c3=O)C(=O)N2c2ccc(C)cn2)cc1OC (stereo not given)	-23	9	3	-0.2	9%	Arbovirus anti repeat=4
CCc1cc(C(=O)OC)c(N2C(=O)C3C4C=CC(C4)C3C2=O)s1 (stereo not given)	-4	1	-6	-0.1	-10%
COC(=O)C1=C(c2ccccc2)C[C@@H]2CC[C@H]1N2C(=O)NCc1ccco1	·	·	-6	-1.0	1%
COCCN1CC(CNC(=O)c2cc(COc3ccccc3SC)on2)CC1=O (stereo not given)	·	·	-4	-0.9	·
COc1ccc(C(=O)OCC(=O)Nc2ccc(F)c(F)c2F)cc1OC	17	2	3	-4.4	1%
CC(C)CC(NC(=O)OC(C)(C)C)c1cn([C@@H](CCCCNC(=O)OC(C)(C)C)C(=O)N2CCN(C(=O)OC(C)(C)C)CC2)nn1 (stereo not given in full)	·	-8	-1	-0.5	1%
O=C(CCNS(=O)(=O)c1ccccc1)NNC(=O)c1csc(N2CCOCC2)n1	·	·	-2	-3.4	·
O=C(O)CCC(=O)N1N=C(c2ccc(Br)cc2)CC1c1cccc(Br)c1 (stereo not given)	·	·	10	1.9	·
COC(=O)c1ccc(-n2c(C)ccc2-c2ccccc2)cc1	-40	-1	92	3.1	2%
O=C(O)c1cc(S(=O)(=O)N(Cc2ccccc2)c2ccccc2Cl)ccc1Cl	·	·	-6	0.5	·
Cc1c(C(=O)N/N=C/c2cccs2)nnn1-c1nonc1N	·	·	3	-0.2	·
CCN(CC)C1=NS(=O)(=O)c2cc([N+](=O)[O-])ccc21	·	-9	-7	-3.4	0%
CCOC(=O)c1ccc2nc(C)c(CCC(C)=O)c(Cl)c2c1	-3	5	76	-0.3	3%
CCCC1=C(C(=O)OCC)C(c2ccc(N(C)C)cc2)n2ncnc2N1 (stereo not given)	-23	6	-5	-5.8	-6%
CCCCOc1ccc(OCCNC(=O)C2CCCN2C(=O)Nc2ccccc2)cc1 (stereo not given)	·	·	-5	2.7	·
Cc1cc(Cl)ccc1NC(=O)CSc1nnc(Cc2cccs2)n1Cc1ccco1	-53	-8	-1	10	4%
O=C(N/N=C/C=C/c1ccccc1)C1CC1(c1ccccc1)c1ccccc1 (stereo not given)	-47	8	-1	2.1	6%
COC(=O)c1sccc1NC(=O)Cn1nnc(-c2ccc(C)cc2)n1	-31	-4	-11	-0.6	0%
Nc1[nH]c(N=NC(=O)c2ccccc2)c2ccccc12	-6	-4	7	0.5	-4%
CN(C)c1ccc(C(=O)NN2C(=O)c3ccccc3C2=O)cc1	·	15	-9	-0.2	5%
CCCC[N+](C)(C)CCC(=O)NC(C)(C)CS(=O)(=O)[O-]	20	8	25	-3.6	-2%
O=C(O)C1CC=CCC1C(=O)Nc1cc(Cl)ccc1Cl (stereo not given)	-126	0	-4	-0.3	-6%
CC1Cc2ccccc2N1CC(=O)NC(c1ccccc1)c1ccccc1 (stereo not given)	-6	-3	7	2.9	3%
COc1cccc(NC(=O)c2cc(-c3ccc(OC)cc3OC)nc3ccccc23)c1	·	·	15	4.6	·
CCn1cc(C(=O)Nc2ccc(C)cc2C)c(=O)c2ccc(C)nc21	·	-5	-14	0.5	-14%
CCOc1ccc(S(=O)(=O)N2CCCC(C(=O)NCc3ccccc3)C2)cc1 (stereo not given)	·	·	-10	-1.0	·
CSCCC(NC(=O)COc1ccccc1)C(=O)OCCOc1ccc(Br)cc1 (stereo not given)	·	·	13	13	·
O=C(NNc1cc(Cl)cc(Cl)c1)c1c(F)cccc1Cl	·	·	77	2.4	56%
Cc1cccc(-c2nc3ccccc3c(=O)n2NC(=O)Cc2ccc(Cl)cc2)c1	-4	13	5	4.2	-1%
O=C(NCc1ccc(F)cc1)c1cnc(-c2ccccn2)nc1C(F)(F)F	-18	5	-8	2.4	5%
COCCn1c(=NC(=O)c2cc(Cl)sc2Cl)sc2cc(S(N)(=O)=O)ccc21	-12	-6	3	1.1	17%
COC(=O)c1cc2ccccn2c2c(C(=O)OC)c(C(=O)OC)cc1-2	-6	-7	2	-2.0	-12%
CS(=O)(=O)NNC(=O)CN1C(=O)C2C3C=CC(C3)C2C1=O (stereo not given)	·	-1	-4	-6.4	4%
CCOc1ccccc1NC(=O)CSc1nnc(CNC(=O)c2ccccc2F)o1	·	·	-5	-2.4	·
O=[N+]([O-])c1cccc(OCCCN2CCC(Cc3ccccc3)CC2)c1	·	·	1	-0.7	·
CC(C)NS(=O)(=O)c1ccc(OCC(=O)NCc2ccco2)cc1	·	-3	-4	-5.5	-2%
CCOC(=O)c1ccccc1NC(=O)CN1C(=O)c2ccccc2S1(=O)=O	-26	5	-1	-4.4	14%
O=C(CSc1nc2ccccc2n1Cc1ccccc1)N/N=C/c1ccco1	-30	0	17	2.3	-1%
COc1ccc(CN(C(=O)c2cccs2)C(C(=O)NC2CCCCC2)c2ccc3ncccc3c2)cc1 (stereo not given)	11	-3	4	2.1	·
COc1nc(-c2ccc(Cl)cc2)ccc1-c1noc(-c2cccs2)n1	-27	-14	6	·	-2%
N=c1c2c(n(Cc3ccc(Cl)cc3Cl)c3c1CCC3)CCCC2	-25	-4	9	2.1	11%
Cc1cccn2c(=O)c3cc(C#N)c(=O)n(-c4c(C)n(C)n(-c5ccccc5)c4=O)c3nc12	-28	3	-4	·	-10%
CCN(Cc1nc(-c2ccc(OC)cc2)no1)C(=O)c1ccc2c(c1)OCO2	·	·	5	4.4	·
COc1ccc(C(=O)OCC(=O)NCc2ccco2)cc1S(=O)(=O)N1CCN(c2cccc(Cl)c2)CC1	6	13	93	5.9	63%
O=C(CSc1nc2cc(S(=O)(=O)N3CCOCC3)ccc2o1)NC1CCCc2ccccc21 (stereo not given)	-35	9	-9	3.5	4%
Additional results.
SMILES	YopH PTP inh	Arbovirus anti	Mtb bLac sens	RecA splice inh	Mtb growth	others
CCOC(=O)C1CCN(C(=O)CS(=O)(=O)Cc2nc(-c3ccccc3Cl)oc2C)CC1	·	·	-1	-6.4	·
CCN(Cc1ccccc1)C(=O)CN1C(=O)NC(CC)(c2ccc(F)cc2)C1=O (stereo not given)	·	·	2	0.6	·
CC1=C/C(=C\c2ccc(Br)o2)C(=O)O1	-7	3	-1	-2.0	2%
COc1cccc(C2CC(c3ccc(NS(C)(=O)=O)cc3)=NN2C(=O)c2ccccc2)c1OC (stereo not given)	·	-11	-5	1.1	5%
O=[N+]([O-])c1ccc(-c2ccccc2)c([As](=O)(O)O)c1	·	·	7	0.9	15%
CC1CCC/C(=N\NC(=S)Nc2ccccc2)C1 (stereo not given)	4	-6	100	-2.4	-4%
CCS(=O)(=O)c1ccc(-c2cccc(NC(=O)COc3ccccc3)c2)nn1	·	·	2	-0.5	·
COc1ccc(/C=N/NC(=O)CSCC(=O)Nc2ccccc2)cc1	·	·	-7	1.8	-8%
CC(=O)N(C(C)=O)S(=O)(=O)c1ccc(N=NN2CCOCC2)cc1	-46	-2	7	1.1	3%
Cc1noc(C)c1COc1ccc(CC(=O)NCCc2ccccn2)cc1	·	·	4	0.9	·
CCOc1ccccc1CN1CCN(Cc2nc3c(s2)CCCC3)CC1CCO (stereo not given)	·	-3	-1	-0.7	-7%
Cc1cc(C)n(C(=O)/C(C#N)=N\Nc2ccccc2[N+](=O)[O-])n1	·	-6	3	·	3%
Nc1ncnc2c1CCC2	-10	-5	-3	0.7	-3%
COc1cc2[nH]c(C(=O)N3CCN(c4ccc(F)cc4)CC3)cc2c(OC)c1OC	·	·	4	-1.6	·
O=C(CCSc1nnc2ccccn12)Nc1ccc2c(c1)OCO2	·	-4	-4	0.8	-12%

Retrieved one by one from above, three records:
SMILES	YopH PTP inh	Arbovirus anti	Mtb bLac sens	RecA splice inh	Mtb growth	others
CC1CCC/C(=N\NC(=S)Nc2ccccc2)C1 (stereo not given)	4	-6	100	-2.4	-4%
O=C(CCSc1nnc2ccccn12)Nc1ccc2c(c1)OCO2	·	-4	-4	0.8	-12%
Cc1noc(C)c1COc1ccc(CC(=O)NCCc2ccccn2)cc1	·	·	4	0.9	·

(further entries)
SMILES	YopH PTP inh	Arbovirus anti	Mtb bLac sens	RecA splice inh	Mtb growth	others
CSc1ccc(S(=O)(=O)N2CCC(C(=O)NCCc3ccccc3)CC2)cc1	·	·	1	-1.5	·
COc1ccc(NC(=O)c2sc3nc(C)cc(C)c3c2N)cc1	·	·	5	-7.0	·
COc1cccc(C(=O)NNC(=O)C(=O)Nc2ccc(C)cc2)c1	·	·	92	0.7	·
Cc1ccc(OC(=O)c2ccc(S(=O)(=O)N(C)C)cc2)c(-n2nc3ccccc3n2)c1	-8	-4	80	9.0	3%
Cc1cc(C(=O)OCC(=O)Nc2ncc(C(F)(F)F)cc2Cl)c(C)o1	-27	-2	-1	1.3	-4%
Cc1ccc2c(c1)N(C(=O)CCC(=O)NCCCN1CCC(Cc3ccccc3)CC1)CCO2	·	·	4	0.3	·
O=C(O)c1ccc2c(c1)C1C=CCC1C(c1ccncc1)N2 (stereo not given)	·	·	-2	15	-3%
COc1ccc(CCN2CC(C(=O)Nc3cccc(C(C)=O)c3)CC2=O)cc1OC (stereo not given)	·	-3	0	·	-6%
COc1ccc(CN2CCC(=O)N([C@H](CO)CC(C)C)CC2)cc1	·	·	-7	-1.3	·
O=C1CCc2cc(S(=O)(=O)N3CCC(C(=O)NC4CCCC4)CC3)ccc2N1	-44	-6	0	·	-11%
CC(C)OC(=O)CSc1nnc(-c2cnccn2)n1Cc1ccco1	-35	-4	45	-2.2	-1%
Cc1ccc2c(C)nc(N/C(N)=N/S(=O)(=O)c3ccccc3)nc2c1	·	·	-4	-1.2	·
CCn1c(CN2CCN(Cc3ccc(C)cc3)C(CCO)C2)nc2ccccc21 (stereo not given)	·	9	8	-0.1	10%
CC(=O)Nc1ccc2c(c1)OCCO2	-28	8	-9	-0.8	-3%
COc1cccc(NC(=S)N/N=C2\CC(C)(C)Oc3ccc(O)cc32)c1	-16	17	20	·	16%
CC(C)(C)c1[nH]nc2c1C(c1ccsc1)C(C#N)=C(N)O2 (stereo not given)	·	-5	-4	27	-3%
COC(=O)CNC(c1ccccc1)c1cc(Br)ccc1NC(=O)CCN1CCOCC1 (stereo not given)	-17	-3	12	6.2	2%
